CSC inhib: blocks cancer stem cells; cancer stem cell-like cells viability, luminescence; inhibition, % at 7.5 µM; actives 1.1% (n = 300,000);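 active = mean at 75% or more and at least half the replicates too; inconclusive = mean and replicates disagree; tested in HMLE shEcad cells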;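 note: 0% = median of negative and 100% = median of positive control wells; the first replicate is given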
Rce1 inhib: inhibitors of yeast Ras-converting enzyme | Q03530 | yeast membranes, quenched prenylated peptide cleavage fluorescence | calls only | actives 0.27% (n = 290,000);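 active = fall in fluorescence gain of 50% or more versus controls, with final raw signal at or below 3038400; inconclusive = same 50% fall but final raw signal above 3038400; inactive = fall in fluorescence gain under 50%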;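 note: plate controls were neutral control wells for no effect and wells lacking membranes for full effect; tested at 10 µM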
Target sequence (Q03530 whole entry, looked up): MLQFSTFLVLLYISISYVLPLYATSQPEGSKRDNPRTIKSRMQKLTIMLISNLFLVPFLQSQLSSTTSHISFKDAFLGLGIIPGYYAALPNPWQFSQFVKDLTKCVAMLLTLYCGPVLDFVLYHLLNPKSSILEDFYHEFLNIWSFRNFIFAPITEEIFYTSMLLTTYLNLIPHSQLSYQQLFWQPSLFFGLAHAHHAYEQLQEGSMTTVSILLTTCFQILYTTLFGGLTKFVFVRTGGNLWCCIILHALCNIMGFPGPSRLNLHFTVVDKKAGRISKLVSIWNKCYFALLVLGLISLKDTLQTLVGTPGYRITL
UUG fidelity: alters start codon recognition fidelity in yeast | actives 0.13% (n = 350,000) | S. cerevisiae UUG-firefly luciferase reporter, luminescence/redox ratio | activity score, % at 18.7 µM;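 active = replicate mean at a twofold rise or more, about +100% in these data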;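 note: firefly luciferase made from a UUG start codon reports start codon fidelity; reporter light over untreated wells divided by growth signal over untreated wells; some hits fall short of that in this replicate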
PABP polyA inh: PABP-poly(A) binding inhibition; PABP-poly(A) RNA binding, fluorescence polarization; inhibition, % at 35 µM; actives 1% (n = 290,000); AID 2014;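 active = 50% or more with normal probe brightness, or confirmed in later tests; inconclusive = above 50% with abnormal brightness, or retests that disagree; inactive = below 50% or failed in later tests; about a fifth of its hits are not listed in these tables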;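 note: calls also rest on retests at 20 µM and on dose response follow-up; controls were probe without protein and protein plus probe with vehicle; some compounds called inactive have numbers as strong as hits; many hits fall short of the cut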
MT1-MMP act inh: MT1-MMP (human) activation inhibition | P50281 | HT1080 RFP-PRO-GFP cells, GFP/RFP ratio fluorescence, overnight; percent of plate control window, DMSO zero | GFP/RFP ratio change, % at 20 µM | actives 0.061% (n = 360,000);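 active = GFP/RFP ratio change of at least 30% with cell ATP level not reduced by more than half and red fluorescence within 50% of control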; note: strong numbers were not always called active
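Compound: 20 µM single dose, 1% DMSO / System: HT1080 RFP-PRO-GFP cells / Controls: DMSO and RFP-L50D-GFP cell wells / Read-out basis: GFP/RFP fluorescence ratio / Schedule: overnight compound exposure at 37 °C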
Env fusion inh: blocks HIV Env-driven cell-cell fusion; actives 1.1% (n = 360,000); HeLa-JRFL Env/CEM21 cell fusion, luciferase; inhibition, % at 12.3 µM;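 active = mean replicate inhibition score of at least 50 and every replicate individually at or above 50; inconclusive = only one of the two criteria met; inactive = mean below 50 and not all replicates reaching 50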;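 note: 0% = plate neutral controls and 100% = maraviroc near 300 nM; one replicate is shown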
eIF4H inh: inhibitors of RNA binding by human eIF4H; eIF4H fluorescence polarization binding assay; actives 0.94% (n = 290,000); Q15056; inhibition, % at 35 µM; AID 2012;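 active = 50% or more with normal probe brightness, or confirmed in later tests; inconclusive = above 50% with abnormal brightness, or retests that disagree; inactive = below 50% or failed in later tests; about a fifth of its hits are not listed in these tables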;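 note: calls also rest on retests at 20 µM and on dose response follow-up; 0% = protein and probe with vehicle and 100% = probe without protein; strong numbers were not always called active; many hits fall short of the cut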
eIF4H inh retest: second read-out of eIF4H inh, no call of its own (marks repeat the call); inhibition, %; compound at 20 µM; confirmation average;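 mean of two retest wells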
PABP polyA inh retest: second read-out of PABP polyA inh, no call of its own (marks repeat the call); inhibition, %; compound at 20 µM; confirmation repeats;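 mean of two retest wells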
MT1-MMP act inh RFP: second read-out of MT1-MMP act inh, no call of its own (marks repeat the call); RFP signal change, %; measured here: RFP expression control read;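 0 = vehicle wells; hits needed this value within 50% of zero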
Active calls of the source: *; i = inactive; ? = inconclusive; · = no result given. The list is partial; count on the stated rates, not on these rows.

SMILES | CSC inhib | Rce1 inhib | UUG fidelity | PABP polyA inh | MT1-MMP act inh | MT1-MMP act inh RFP | Env fusion inh | eIF4H inh | others
CN(c1ccc(Cl)cc1)S(=O)(=O)c1nnc(NC(=O)c2ccco2)s1 | 22.3 | i | -5.1 | · | 3.1 | 3.2 | -1.0 | ·
Cc1sc(NC(=S)NC(=O)c2ccccc2)c(C#N)c1C | 6.9 | i | -5.9 | · | 1.3 | 0.0 | -94.8 | ·
CCOC(=O)CSc1nncc2ccc(OC)c(OC)c12 | -2.1 | i | 6.4 | 9.3 | 4.2 | 1.4 | -79.6 | -11.6
Cc1cccc2cc(C(c3nnnn3CC3CCCO3)N3CCOCC3)c(=O)[nH]c12 (configuration not stated) | 3.5 | i | -8.1 | -3.0 | -8.5 | -2.9 | -154.7 | 1.4
COc1cc(OC)cc(C(=O)Nc2ccc(N(C)C)c3ccccc23)c1 | -20.4 | i | -10.3 | 6.8 | -4.3 | 1.0 | 6.0 | 7.4
Fc1ccc(CN2CCCCCCC2)cc1 | -5.7 | i | -4.6 | 7.2 | -2.0 | -0.3 | · | -2.0
CCOC(=O)c1c(NC(=O)COC(=O)CCOc2ccccc2C)sc(C(=O)NC)c1C | 7.7 | i | -11.0 | · | 6.0 | 2.2 | -6.2 | ·
COc1ccc(S(=O)(=O)N2CCN(c3ncccn3)CC2)cc1 | 8.2 | · | · | · | -0.9 | 1.3 | -7.5 | ·
CSc1ncccc1C(=O)NCC1CCCCC1 | -1.3 | i | -7.2 | 5.3 | 2.1 | 6.1 | -9.4 | 2.1
CCOc1ccc(CCNc2cc(C)nc3ncnn23)cc1OCC | -12.7 | i | -16.1 | -0.9 | 0.4 | -11.8 | 4.4 | 5.0
CCCSc1nnc(Cc2cc(=O)[nH]c(=O)[nH]2)n1-c1cc(C)ccc1C | 0.5 | i | -11.7 | 5.5 | -5.2 | 2.1 | -13.1 | -5.7
C=CCn1c2[n+](c3ccccc3c1=O)CCCCC2 | -7.8 | i | · | -9.8 | -0.6 | 1.8 | 11.4 | 49.3
Cc1cc(C)c([N+](=O)[O-])cc1NC(=O)CCS(=O)(=O)c1ccccc1 | -8.9 | · | -25.8 | -10.5 | -0.2 | 3.4 | 15.7 | -9.7
CC(=O)c1ccc(N2CCN(S(=O)(=O)c3ccc4c(c3)CC(C)N4C(C)=O)CC2)cc1 (configuration not stated) | 3.8 | i | 0.6 | 7.5 | -3.2 | -27.1 | 51.9 | -5.8
CSc1ccccc1NC(=O)CN(C)C(=O)CNC(=O)c1ccc(Oc2ccccc2)cc1 | · | · | -12.3 | · | 0.6 | -20.0 | 5.7 | ·
COc1ccccc1-n1cnc2cc(NS(=O)(=O)c3ccccc3)ccc21 | -20.5 | i | -18.0 | -2.7 | -6.7 | -11.0 | · | -2.1
S=C(NCCc1ccccn1)Nc1ccccc1 | -11.0 | i | · | -3.1 | 15.7 | 2.6 | -3.5 | 8.8
Oc1oc(-c2ccco2)nc1C=Nc1cccc(Cl)c1 | -9.5 | i | -16.0 | 9.4 | -2.5 | -5.6 | -136.0 | -3.4
O=C(CSc1ncnc2nc[nH]c12)c1ccc2ccccc2c1 | -0.7 | · | -3.8 | -16.7 | 8.0 | -22.4 | · | -6.9
NNC(=S)NC1CCS(=O)(=O)C1 (configuration not stated) | 8.7 | · | -30.1 | -1.7 | -3.2 | 4.9 | 5.8 | 5.1
CCC1Oc2ccccc2N(CC(=O)Nc2ccc(OC)cc2OC)C1=O (configuration not stated) | -11.5 | i | -10.4 | 3.3 | 5.2 | 1.3 | -80.0 | -1.4
COc1ccc2c(c1)CC[C@@H]1[C@@H]2CC[C@]2(C)[C@@H](C(C)=O)C[C@@H]12 | 34.2 | i | -20.4 | · | 1.6 | -5.2 | -1.3 | ·
COc1ccc(-c2csc(NC(=O)c3ccc(S(C)(=O)=O)cc3)n2)cc1 | 2.2 | i | -8.5 | 93.7 | 0.0 | -8.5 | -8.8 | 11.3 | eIF4H inh retest=7.1;PABP polyA inh retest=-1.8
COc1ccccc1CCNC(=O)CSc1nnc2ccc(-c3ccncc3)nn12 | -4.9 | i | -14.9 | -6.4 | 5.3 | 0.8 | 12.2 | -2.1
Cc1ccc(S(=O)(=O)N2CCN(c3ccccc3)CC2)cc1C(=O)NC1CCCCC1 | -7.4 | i | 3.9 | -6.4 | -0.6 | -21.6 | -16.3 | -0.2
CCn1nc(C(=O)OCC(=O)Nc2nc(-c3ccc(OC)cc3)cs2)c2ccccc2c1=O | 14.2 | i | -7.5 | -3.3 | 6.1 | 5.8 | -25.8 | -9.6
Cc1cccc(NC(=O)Cn2nnc(C(=O)NCc3ccco3)c2N)c1 | · | i | · | -2.8 | 2.1 | 2.6 | 9.2 | 0.4
CS(=O)(=O)N(Cc1ccc(Cl)cc1)c1ccc(C(=O)Nc2cccnc2)cc1 | -20.0 | i | -17.2 | -6.9 | -21.9 | -25.0 | 60.2* | -13.0
Cc1ccccc1-c1noc(CNC(=O)COc2ccccc2)n1 | -10.4 | i | -22.8 | 1.3 | 1.6 | 1.6 | -46.0 | 0.4
Cc1ccc(CNC(=O)c2cc(C3CC3)nc3c2cnn3C(C)C)cc1 | 4.6 | · | -15.6 | · | -2.7 | -2.8 | 12.7 | ·
O=C(CSc1ncn[nH]1)c1cccc([N+](=O)[O-])c1 | 4.4 | · | · | -2.5 | 0.8 | 6.3 | -153.0 | -5.1
CCCCCc1cc(=O)oc2c(C(CCN3CCCCC3)c3ccc4c(c3)OCO4)c(OC)cc(OC)c12 (configuration not stated) | ? | i | 2.8 | -15.8 | 3.2 | -2.5 | -8.3 | -13.1
COc1cc2c(cc1OC)C(=O)N1[C@H]3c4cc(C)ccc4OC[C@@H]3[C@H](c3ccccc3)[C@]1(C)C(=O)N2 | 39.2 | · | -11.4 | · | -3.4 | -12.8 | -43.4 | ·
Cc1ccnc(NC(=O)c2cc(F)c(F)cc2Cl)n1 | -1.2 | i | -8.4 | -8.2 | 0.1 | 3.4 | -9.6 | -10.7
COc1ccc(Cl)cc1C(=O)NCC(C)C | 10.9 | i | -15.7 | 2.5 | -0.9 | -1.4 | 17.2 | 5.0
C#CCSc1nnc(CSc2nc3ccccc3s2)n1-c1ccccc1 | -11.1 | i | -23.1 | -7.2 | -4.0 | -9.2 | -2.6 | 4.6
CC1(C)Cc2c(sc3nc4n(-c5ccccc5)cnn4c(=O)c23)CO1 | -19.3 | i | 0.8 | 0.1 | 1.8 | 2.8 | 2.8 | 1.6
COc1cc2nc3occc3c(OC)c2cc1OC | -7.0 | i | -24.1 | 7.4 | 13.8 | -0.2 | -36.1 | -4.5
COc1ccc(C(OC(=O)c2ccco2)C(=O)NC(C)(C)C)cc1OC (configuration not stated) | · | · | -13.3 | · | 0.5 | 2.2 | -17.3 | ·
COc1cc(C)c(CN2CCN(c3ncccn3)CC2)cc1C | -7.2 | i | -6.5 | · | 3.7 | 1.5 | -14.4 | ·
N#CCCN(C(=O)COC(=O)c1ccc2c(c1)NC(=O)CS2)c1ccc2c(c1)OCCO2 | · | i | -8.5 | 4.0 | 0.9 | 3.4 | -33.5 | -7.1
Cn1ncc(Br)c1C(=O)NC1C2CC3CC(C2)CC1C3 (configuration not stated) | 37.2 | i | · | 13.2 | -6.8 | -3.3 | 12.1 | -8.4
Cc1cc(Br)cn2c(Cc3ccsc3)c(C(C)(C)C)nc12 | · | · | 15.7 | · | -16.7 | 6.6 | -23.4 | ·
Cc1cccc(N2CCN(C(=O)c3ccc(S(=O)(=O)N(C)c4ccccc4)cc3)CC2)c1C | 56.9 | · | · | · | -2.8 | -15.4 | 23.0 | ·
CCCC(C)NC(=O)CSc1nc(-c2ccccc2)cn1N (configuration not stated) | -5.3 | i | · | 14.1 | 1.8 | -1.6 | -8.6 | -2.1
COc1ccc(-c2noc(CN(Cc3nccn3C)C(C)C)n2)cc1 | -10.4 | i | -13.7 | 0.0 | -5.1 | -1.9 | 14.8 | -0.5
O=C1N[C@@H](Cc2ccccc2)C(=O)N2[C@H]1C[C@]1(Br)c3ccccc3N(S(=O)(=O)c3ccccc3)[C@H]21 | 8.1 | i | -11.9 | · | -0.2 | 4.4 | 0.0 | ·
CCCCNC(=O)CS(=O)Cc1nc(-c2cccc(C)c2)oc1C (configuration not stated) | -19.6 | i | -4.7 | -4.3 | 0.9 | 2.0 | -1.2 | -0.8
Cc1ccc(S(=O)(=O)Nc2cccc(C(=O)NCCCN3CCOCC3)c2)cc1F | 12.2 | i | 21.0 | · | 1.5 | 2.8 | 0.7 | ·
O=C(NC1CC1)c1ccc2c3c(cccc13)CC2 | -6.3 | i | · | -1.0 | -1.0 | 3.2 | 14.0 | 3.0
Nc1cc(=O)[nH]c(SCC(=O)NCC2CCCO2)n1 (configuration not stated) | -17.0 | i | -10.7 | 6.7 | 4.9 | 6.3 | 0.7 | -11.4
CCN(c1ccccc1)S(=O)(=O)c1ccc(Oc2ccc([N+](=O)[O-])cc2)nc1 | -0.9 | i | -13.6 | · | 0.5 | -13.5 | · | ·
Cc1ccc2sc(C)[n+](CCCS(=O)(=O)[O-])c2c1 | 1.2 | · | · | 8.2 | 3.4 | 6.1 | -3.6 | -7.2
Cc1c(NC(=S)NCc2ccc(F)cc2)cccc1[N+](=O)[O-] | -1.8 | i | · | -2.3 | -4.5 | -3.0 | · | -6.3
CC(=O)Nc1ccc(S(=O)(=O)N2CCN(c3nc(C)cc(C)n3)CC2)cc1 | -11.5 | i | -4.4 | 2.5 | 3.4 | 2.6 | -9.5 | 1.1
CCN1CCN(CCCNC(=O)CCC(=O)N2CCOc3ccc(Cl)cc32)CC1 | -11.2 | i | -7.5 | -17.2 | -2.3 | 3.6 | 14.3 | -2.1
COc1ccc(CC2(CO)COc3ccccc3C2=O)cc1 (configuration not stated) | 48.8 | i | · | · | -3.0 | -5.0 | 18.0 | ·
Cc1cc(Cl)ccc1NC(=O)CSc1n[nH]c(N)n1 | -8.5 | · | -21.5 | · | 1.1 | -3.4 | 4.4 | ·
C=CCn1c(SCCC#N)nnc1-c1ccncc1 | -2.5 | i | 1.4 | -6.2 | 7.7 | 3.4 | i | 2.8
c1ccc(N2CCN(c3cnccn3)CC2)nc1 | -7.4 | i | -18.4 | 12.9 | 3.5 | -1.1 | -1.9 | -2.5
Cc1ccc2[nH]c(-c3ccccc3)c(CN3CCN(C)CC3)c(=O)c2c1 | -2.7 | i | -11.9 | -0.4 | -4.3 | -1.0 | -71.9 | 3.1

A draw from above in order of count of non-hydrogen atoms, largest number first.
SMILES | CSC inhib | Rce1 inhib | UUG fidelity | PABP polyA inh | MT1-MMP act inh | MT1-MMP act inh RFP | Env fusion inh | eIF4H inh | others
Cc1ccc(S(=O)(=O)Nc2cccc(C(=O)NCCCN3CCOCC3)c2)cc1F | 12.2 | i | 21.0 | · | 1.5 | 2.8 | 0.7 | ·
CCN(c1ccccc1)S(=O)(=O)c1ccc(Oc2ccc([N+](=O)[O-])cc2)nc1 | -0.9 | i | -13.6 | · | 0.5 | -13.5 | · | ·
COc1ccc(CC2(CO)COc3ccccc3C2=O)cc1 (configuration not stated) | 48.8 | i | · | · | -3.0 | -5.0 | 18.0 | ·
Cc1cc(Cl)ccc1NC(=O)CSc1n[nH]c(N)n1 | -8.5 | · | -21.5 | · | 1.1 | -3.4 | 4.4 | ·
